From PubChem
D2 PAM = Beta-Arrestin HTS for Positive Allosteric Modulators of the Human D2 Dopamine Receptor: Potentiators. D(2) dopamine receptor (Homo sapiens), P14416. DiscoveRx D2 beta-arrestin cells, luminescence, 90 min; 100% = 57 uM dopamine signal. potentiation, % (concentration not given with the values). 0.23% of 360,000 active. AID 624464, 2012; active = potentiation of 50% or more; inconclusive = 30% to 50%; inactive = 30% or less;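 note: compound concentration not given in the record; tested on top of an EC20 dose of dopamine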
Target sequence (P14416 whole entry, looked up): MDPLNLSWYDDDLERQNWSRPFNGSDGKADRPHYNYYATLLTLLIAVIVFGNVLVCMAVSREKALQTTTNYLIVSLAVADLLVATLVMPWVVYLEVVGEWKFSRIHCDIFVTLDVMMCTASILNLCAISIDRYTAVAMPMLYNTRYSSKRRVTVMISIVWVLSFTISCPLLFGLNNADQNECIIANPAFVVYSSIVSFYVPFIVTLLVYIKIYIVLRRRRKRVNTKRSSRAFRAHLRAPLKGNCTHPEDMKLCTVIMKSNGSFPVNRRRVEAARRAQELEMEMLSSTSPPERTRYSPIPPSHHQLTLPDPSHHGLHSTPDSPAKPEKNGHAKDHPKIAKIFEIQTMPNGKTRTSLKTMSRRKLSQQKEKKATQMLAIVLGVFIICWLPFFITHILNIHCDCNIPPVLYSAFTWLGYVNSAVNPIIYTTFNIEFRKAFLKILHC
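D2 cells co-treated with compound plus 50 nM dopamine (EC20) for 90 min at 37 deg C to detect potentiation. Beta-arrestin recruitment was read as enzyme-fragment luminescence after 1 h at ambient temperature. Full response was set by 57 uM dopamine.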
TRPV1 potentiator = HTS Assay for Compounds that Act as Potentiators of the Vanilloid Receptor 1 | Transient receptor potential cation channel subfamily V member 1 (Homo sapiens), Q8NER1 | TRPV1-expressing cells, Fluo-8 calcium influx, capsaicin EC20 potentiation; host cell line not named in the record; control for the full effect not named in the record | potentiation, % at 8.33 µM | 0.02% of 320,000 active; active means potentiation above 80%; inconclusive means 30% to 80%; inactive means below 30%; note: 0% is about no effect
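Fluo-8 calcium influx in TRPV1-expressing cells, kinetic read (ex 480/em 520 nm). Compound added and read 3 min for agonist activity, followed by capsaicin at EC20 final and 2 min further read for enhancement.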
gsp agonist = qHTS for Agonist of gsp, the Etiologic Mutation Responsible for Fibrous Dysplasia/McCune-Albright Syndrome: qHTS; gsp mutant cells, cAMP HTRF, 30 min; control for the full effect not named in the record; Potency, µM (doses to about 76.9 µM), inactives show at the top dose activation (cAMP increase), most hits filed as activators; 0.13% of 340,000 active; AID 624287, 2012; active = well fitted activation curve with a large enough effect; inconclusive = small, poorly fitted or top-dose-only effect, or another doubt; inactive = no such curve, though single readings can be large or run the other way; cell line not stated here;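 note: phosphodiesterase inhibitor Ro 20-1724 added with compounds to block cAMP breakdown; potency is the fitted concentration of half-maximal effect; nearly all actives have a fitted effect of over 60% in size; about a fifth of the inactives were tested at one dose only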
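Cells in DMEM/10% FBS with G418 were pretreated with compounds in DMSO plus […] (300 uM stock) for 30 min at 37C. cAMP was measured by HTRF (cAMP-d2 plus anti-cAMP antibody-K) after 30 min at room temperature.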
ClpP mod = qHTS Assay for Activators of ClpP; 1.9% of 340,000 active; purified B. subtilis ClpP, FRET peptide cleavage, 20 min; AID 651965, 2013; Potency, µM (series often up to 57.5 µM), without a hit: at the top dose activity change, negative = active; active = well fitted falling curve with a large enough effect; inconclusive = small, poorly fitted or top-dose-only effect; inactive = no such curve, though single readings can be large or run the other way; note: potency is the fitted concentration of half-maximal effect; the source files actives as falling curves though it sought activators and does not explain the sign; nearly all actives have a fitted effect of over 65% in size; many hits overshoot -100%
Target sequence (P80244 whole entry, looked up): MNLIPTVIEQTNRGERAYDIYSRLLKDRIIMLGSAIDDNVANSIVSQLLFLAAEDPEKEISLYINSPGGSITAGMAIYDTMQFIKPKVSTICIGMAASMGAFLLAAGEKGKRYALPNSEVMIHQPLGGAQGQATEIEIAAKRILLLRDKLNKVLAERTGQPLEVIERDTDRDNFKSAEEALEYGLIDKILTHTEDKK
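Buffer: 100 mM Tris/HCl pH8, 100 mM KCl, 0.05% low protease BSA, 2.5% glycerol, 0.01% Tween-20. ClpP 10 microg/mL final; 20 min RT; delta FRET normalized to ADEP and DMSO controls.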
gsp antag = qHTS for Antagonists of gsp, the Etiologic Mutation Responsible for Fibrous Dysplasia/McCune-Albright Syndrome: qHTS. gsp-mutant cells, cAMP HTRF, 30 min; control for the full effect not named in the record. AID 624288, 2012. 0.4% of 340,000 active. Potency, µM (highest dose often 76.9 µM), inactives show at the highest dose activity change, negative = inhibition, most hits filed as inhibitors; active = falling curve of any shape with a large fitted effect; inconclusive = falling curve, mostly with a smaller effect; inactive = flat or rising curve; cell line not stated here;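 note: intracellular cAMP measured with PDE inhibitor Ro 20-1724 present during compound exposure; potency is the fitted concentration of half-maximal effect; % is set by controls: 0 for no effect and ±100 for the full control effect; nearly all actives have a fitted effect of over 65% in size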
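G418-selected cells were plated in DMEM/10% FBS for 16-24 h at 37C, then treated with compounds plus the PDE inhibitor […] (300 uM solution added) for 30 min at 37C. Intracellular cAMP was measured by HTRF after 30 min lysis at room temperature.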
Menin-MLL FL inh = qHTS Assay for Inhibitors Targeting the Menin-MLL Interaction in MLL Related Leukemias: Competition With Fluorescein Labeled MLL-derived Peptide | Fluorescence polarization, fluorescein-MLL peptide displacement from menin | FP activity change, % at 61.4 µM | 290,000 tested, under 10 active | AID 1766, 2009; inconclusive = falling polarisation curve, or a change in total fluorescence; inactive = total fluorescence flat and polarisation flat or rising; no compound was filed as active; the % refers to the polarisation; negative = inhibition;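 note: % of control where 0% means no effect; inhibitors lower the polarisation; unlabelled MLL peptide was the positive control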
Sfp PPTase inh = qHTS Assay for Inhibitors of Bacillus subtilis Sfp phosphopantetheinyl transferase (PPTase). Potency, µM, for inactives: max response, negative = inhibition, most hits filed as inhibitors. Biochemical Sfp PPTase activity, qHTS. 4'-phosphopantetheinyl transferase ffp (Bacillus subtilis), Q9F4F7. 3.5% of 310,000 active. AID 1490, 2009; active = well fitted inhibition curve with a large enough effect; inconclusive = small, poorly fitted or top-dose-only effect, or another doubt; inactive = no such curve, though single readings can be large or run the other way;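 note: the enzyme is Sfp with the accession as filed and its product quenches rhodamine fluorescence; potency is the fitted concentration of half-maximal effect; 0% = enzyme reaction without inhibitor and -100% = no enzyme wells; top concentration of the series not given in the record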
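Fluorescence-quenching assay with 15 nM Sfp, 5 uM rhodamine-CoA and 12.5 uM BHQ-2-labelled ybbR peptide in pH 7.6 Hepes/MgCl2 buffer. Enzyme was pre-incubated with compound for 15 min at room temperature. Rate was taken from the 30-min fluorescence change (525/598 nm).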
The depositor's hits bear a star; i = inactive; ? = inconclusive; nt = not tested or not shown; [ ] = another dose, or the depositor's remark. Outcome played no part in choosing rows; about 5.1% have a hit in one of these screens.

Below each SMILES – D2 PAM, TRPV1 potentiator, gsp agonist, ClpP mod, gsp antag, Menin-MLL FL inh, Sfp PPTase inh
COc1ccccc1S(=O)(=O)Nc1ccc(S(=O)(=O)Nc2nccs2)cc1
    0, 3, 2%, 0.7%, 8%, nt, nt
Cc1ccc(C)n1-c1ccc(C(=O)N2CCC(C(N)=O)CC2)cc1
    -2, 10, -4%[15.4 µM], nt, 5%, -2.6, 8%
Cc1nc2c(sc3nc4c(cc32)COC(C)(C)C4)c(=O)n1Cc1ccccc1
    -15, 8, 20%, ?, -1%, 4.0, -1%
Cc1cc(C)c(C(N)=O)c(Nc2cccc(Cl)c2)n1
    -3, 16, ?, 0.6%, -8%, -0.7, 15%
COc1ccc2c(c1)OC[C@H]1[C@H]2N2C(=O)CN(Cc3ccc(Cl)cc3)C(=O)[C@@]2(C)[C@H]1c1ccccc1
    0, -5, nt, 2.1%, -18%, nt, nt
O=C(O)c1ccc([N+](=O)[O-])c(CS(=O)(=O)c2ccccc2)c1
    -11, 22, 14%[15.4 µM], -1.8%, 0%, 0.8, 15%
Cc1ccc2cc3cc(C(=O)NCCCN4CCCCCC4)oc3nc2c1
    -16, 9, -2%, 27%, 4%, 6.3, -8%
CCCC[C@]12Cc3ccccc3[C@H](O1)C1=C(O2)C(=O)c2ccccc2C1=O
    nt, i, nt, nt, nt, 0.9[11.7 µM], 12%
O=c1[nH]nc(N/N=C/c2ccc(Cl)cc2Cl)c(=O)[nH]1
    0, -1, -2%, -2.1%, ?, 4.0, 56µM*
CC1(C)CC(=O)C(C(C2=C(O)CC(C)(C)CC2=O)c2ccc(O)c([N+](=O)[O-])c2)=C(O)C1
    1, 8, ?, nt, -13%, -1.7, 20µM*
O=C(NCc1cccnc1)Nc1ccccc1C(F)(F)F
    -7, 3, ?, 0.9%, 16%, -2.2, 13%
CC(=O)c1ccc(N2C(=O)[C@@H]3C(C(=O)CCN4C(=O)c5ccccc5C4=O)=NN[C@@H]3C2=O)cc1
    3, 10, 2%, -1.1%, -3%, -3.6, 4%
COc1ccc(C(=O)COC(=O)C(CCSC)NC(=O)COc2ccccc2)c(OC)c1 (stereo not given)
    -19, 7, ?, -1.6%, -3%, nt, -4%
CC(C)C(c1nnnn1C1CCCC1)N1CCCCC1 (stereo not given)
    -27, 3, -41%[inhibitor], 0.4%, -3%, -3.8, -23%
COc1ccc(-c2nnc(SCc3cccnc3)o2)cc1
    -13, 10, 8%, 0.3%, 3%, 2.4, -10%
COC(=O)C(C)Sc1nc2c(c(-c3ccc(OC)cc3)c1C#N)-c1ccccc1C2=O (stereo not given)
    -10, nt, 16%, 0.5%, -15%, nt, nt
COc1cc2c(cc1OC)C(c1ccccc1[N+](=O)[O-])N(C(C)=O)CC2 (stereo not given)
    -1, 2, 3%, nt, -9%, -6.4, 45µM*
O=C(COc1ccc(/C=N/NC(=O)c2cc3ccccc3o2)cc1Cl)Nc1ccccc1
    -8, 28, -47%[inhibitor], 9.4%, 19%, 3.7, ?
COc1ccc(S(N)(=O)=O)cc1C(=O)NCC1(N2CCCCC2)CCCCC1
    -8, 9, -6%, -5.7%, -12%, 2.2, 16%
Cc1nc(CNC(=O)C2CCC(=O)N(CCc3ccc(Cl)cc3)C2)sc1C (stereo not given)
    -9, -7, -22%[15.4 µM], -0.3%, -7%, nt, 0%
Cc1ccc(F)c(NC(=O)/C(C#N)=C(\O)c2ccc(C(C)(C)C)cc2)c1
    -11, 7, -4%, -0.5%, ?, -5.3, -46%
N=c1c2c(ncn1Cc1ccco1)Oc1c(ccc3ccccc13)C2c1ccccc1 (stereo not given)
    -23, 8, -2%, -3.3%, -11%, 4.6, 50µM*
CCn1c(=N)c(C(=O)OC)cc2c(=O)n3ccccc3nc21
    nt, -2, nt, nt, nt, 2.4, 9%
Cc1nc(NCCc2ccc(F)cc2)c(C#N)c(C)c1[N+](=O)[O-]
    -15, 1, -11%, 1.2%, -15%, 0.9, 2%
COCCn1c(CN2CCc3ccccc3C2)nc2c1c(=O)n(C)c(=O)n2C
    -8, 5, 5%[15.4 µM], nt, 7%, -2.0, 9%
O=C(NC1CCCC1)c1cnn2c(C(F)(F)F)cc(-c3ccco3)nc12
    -13, -40, 4%, -18%, 1%, 3.3, 2%
COc1ccc(Cn2c(=S)[nH]c3cc(C(=O)N4CCCCC4)ccc3c2=O)cc1
    3, 26, 6%[15.4 µM], nt, -13%, -10, -3%
O=C(CCN1C(=O)/C(=C/c2ccccc2Cl)SC1=S)NC1=NCCS1
    -5, 11, 13%[15.4 µM], nt, -7%, 12, 1%
COc1ccc(N(C)C(=O)c2cn(CC(C)C)c(=O)c3cc(OC)c(OC)cc23)c(OC)c1
    -8, -16, -19%, -2.6%, ?, -2.4, 8%
O=c1c2ccccc2c(-c2ccc(O)cc2)nn1-c1cccc(C(F)(F)F)c1
    9, -5, -27%, -11%, -26%, 5.7, 16%
Clc1ccc2c(N/N=C/c3cccc(Br)c3)ccnc2c1
    -7, -9, -4%, 7.2%, -11%, 5.5, -8%
C/C(=N\NC(=O)C(N)=O)c1cccc([N+](=O)[O-])c1
    -6, 0, ?, 0.2%, 13%, -5.0, -20%
COc1ccccc1NC(=O)Cn1nc(-c2ccc3c(c2)OCCO3)ccc1=O
    -2, 4, -18%, -1.0%, -8%, -5.0, 2%
Cc1ccc[n+](-c2nc([O-])sc2C=O)c1
    -1, 4, 22%[15.4 µM], nt, 9%, ?, 3%
O=C(CCN1C(=O)[C@@H]2Cc3ccccc3CN2C1=O)N[C@H](Cc1ccccc1)C(=O)O
    -15, 0, nt, -1.5%, -7%, -4.3, 6%
O=C(NCC1CCCO1)c1cccc2c1C(=O)c1ccc(N3CCC(Cc4ccccc4)CC3)cc1S2(=O)=O (stereo not given)
    6, nt, 7%, -0.7%, ?, nt, nt
CCCn1c(N)c(C(=O)COC(=O)CNC(=O)c2ccc(C)c(C)c2)c(=O)n(C)c1=O
    2, 18, -14%, 1.4%, -4%, nt, nt
CCc1ccc(C(=O)Nn2cnc3ccccc3c2=O)cc1
    -5, -2, -19%, nt, 2%, -3.3, 12%
Cc1cccn2c(=O)c(/C=C(\C#N)S(=O)(=O)c3ccccc3)c(N3CCC(C(N)=O)CC3)nc12
    -11, 2, 19%, 2.4%, -2%, 0.5, -13%
CC(C)(C)OC(=O)NCCC(=O)Oc1ccc2ccc(=O)oc2c1
    -13, 3, ?, 813%, -3%, -2.3, 10%
Cc1nc(SCC(=O)Nc2cccc(Cl)c2)n[nH]1
    -6, 3, -46%, 1.0%, 4%, 2.9, -2%
O=C(Nc1ccccc1F)C1CC1c1ccccc1 (stereo not given)
    -12, -8, 7%, -1.5%, 5%, -0.7, 0%
O=C1c2ccccc2CSc2c(O)cccc21
    -14, nt, 1%, nt, 5%, nt, nt
OCCC1CN(Cc2ccccc2O)CCN1CCCc1ccccc1 (stereo not given)
    -72, -7, -6%, -3.3%, -4%, 1.7, 19%
O=C(CSc1nnc(COc2ccc(Cl)cc2Cl)o1)Nc1ccccn1
    8, -1, -15%[15.4 µM], -4.9%, 8%, nt, -13%
CCOC(=O)N1CCN(C(=S)Nc2cccc(C)c2C)CC1
    -13, 11, 23%, 1.3%, -2%, 3.0, 14%
CC(=O)Nc1ccc(CCNC(=O)c2ccc3ccccc3c2O)cc1
    0, nt, -1%, 25µM*, 4%, nt, nt
Cc1ccccc1Nc1n[nH]c(C)c1[N+](=O)[O-]
    -10, -5, ?, -22%, 7%, 0.5, -6%
COc1ccc(-n2cc(-c3ccccc3)[nH]c2=S)c(OC)c1
    -11, 3, 0%, ?, -13%, -1.3, ?
O=C(Nc1cccc2ncccc12)C(Cl)(Cl)Cl
    19, 22, 6%, 1.3%, -8%, -0.2, 6%
Cn1cc(CN2CCc3c([nH]c4ccccc34)C2C(C)(C)C)cn1 (stereo not given)
    -8, 11, -1%[15.4 µM], nt, 9%, -4.0, -1%
COc1ccc(-c2cnnn2-c2ccc([N+](=O)[O-])cc2)cc1
    -1, 0, 5%[15.4 µM], nt, 2%, -0.1, 15%
CCOC(=O)CCc1c(C)nc(SCCCn2c(=O)[nH]c3ccccc32)c(C#N)c1C
    -6, 6, 0%, 0.6%, -32%, 3.0, -94%
O=C(NCCCn1ccnc1)c1ccc2c(c1)OCCO2
    8, 18, 0%, -1.6%, 4%, -1.3, 17%
O=C1N=C(N2CCOCC2)CS1
    12, -15, ?, 0.0%, 1%, 0.2, 17%
Cc1cccc(-n2ncc3c(N4CCC(C)CC4)ncnc32)c1
    1, -13, 26%, -14%, -10%, 6.6, -23%
CCC1C(=O)CC(c2ccco2)NC1c1ccco1 (stereo not given)
    15, -7, 26%, -2.1%, 4%, 3.5, 3%
CN(C)/C=C/C(=O)c1cnc2sccn2c1=O
    2, ?, ?, nt, 10%, 1.3, 13%
Cc1cccc(NC(=O)N(Cc2cc3cc(C)ccc3[nH]c2=O)CC2COCCO2)c1 (stereo not given)
    1, 9, -2%[15.4 µM], -1.2%, -11%, 2.8, -10%
COc1cc(CC(=O)Nc2ccc3nc(SC)sc3c2)cc(OC)c1OC
    -14, 20, ?, 0.9%, -11%, 0.5, 12%
O=C(CNS(=O)(=O)c1cccs1)Nc1ccc2c(c1)OCCO2
    -19, 8, 18%, 0.1%, 6%, 1.8, -2%
O=C(c1cnn(C(=O)c2cccc(S(=O)(=O)N3CCOCC3)c2)c1)c1cc(Cl)cc(Cl)c1O
    -1, 1, 3%[15.4 µM], nt, 1%, 5.4, -6%
N#Cc1ccc(C(=O)NCCCSc2ccccc2)cc1
    -9, -11, -2%[15.4 µM], nt, 5%, 2.0, 12%
